# Compound activity deposited in PubChem BioAssay by National Center for Advancing Translational Sciences (NCATS).
# TRPML1 ag: human mucolipin-1 channel agonism | Q9GZU1 | TRPML1-expressing cells, Ca2+ dye fluorescence, FDSS; host cell line not named in the record; reference of the full effect not given here | activation, % (test concentration not listed) | actives 0.12% (n = 410,000) | AID 624414; in the data active = activation above about 50%; inconclusive = about 30% to 50%; inactive = below about 30%; also: 0% is about no effect; the text of the record puts the active cut at 80%
# Target sequence (Q9GZU1 whole entry, looked up): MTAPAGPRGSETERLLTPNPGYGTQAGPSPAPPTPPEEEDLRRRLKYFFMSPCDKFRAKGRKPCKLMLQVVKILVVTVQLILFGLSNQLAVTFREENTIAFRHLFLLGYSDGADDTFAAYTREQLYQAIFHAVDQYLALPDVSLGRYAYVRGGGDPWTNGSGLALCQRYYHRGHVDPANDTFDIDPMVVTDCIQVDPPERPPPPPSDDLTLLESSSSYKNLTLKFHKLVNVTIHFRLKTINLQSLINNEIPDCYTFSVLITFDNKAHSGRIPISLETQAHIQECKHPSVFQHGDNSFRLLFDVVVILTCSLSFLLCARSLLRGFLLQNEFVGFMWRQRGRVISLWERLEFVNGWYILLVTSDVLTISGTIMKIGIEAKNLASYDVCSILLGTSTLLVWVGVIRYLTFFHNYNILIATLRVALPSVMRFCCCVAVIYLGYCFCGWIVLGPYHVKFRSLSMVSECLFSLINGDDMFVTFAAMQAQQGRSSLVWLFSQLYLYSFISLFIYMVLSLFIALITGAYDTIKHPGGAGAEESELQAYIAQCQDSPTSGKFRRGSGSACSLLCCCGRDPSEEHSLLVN
#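 In this qHTS format, compounds were pin-transferred onto Ca8-dye-loaded TRPML1-DL cells induced with Tet overnight, and intracellular Ca2+ fluorescence was recorded kinetically for 110 s after a 10 s baseline. A subsequent 4uM final 54-4 (EC80) addition followed by a second 110 s read served as the antagonist phase.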
# gsp agonist: activates gsp, the McCune-Albright syndrome mutation. Potency, µM (highest dose often 76.9 µM), for the others: at the highest dose activation (cAMP increase), usual class: activators. gsp mutant cells, cAMP HTRF, 30 min; control for the full effect not named in the record. actives 0.13% (n = 340,000). AID 624287; active = well fitted activation curve with a large enough effect; inconclusive = small, poorly fitted or top-dose-only effect, or another doubt; inactive = no such curve, though single readings can be large or run the other way; cell line not stated here;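 also: phosphodiesterase inhibitor Ro 20-1724 added with compounds to block cAMP breakdown; potency is read from the fitted curve at half-maximal effect; nearly all actives have a fitted effect of over 60% in size; about a fifth of the inactives were tested at one dose only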
#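 Cells in DMEM/10% FBS with G418 were pretreated with compounds in DMSO plus […] (300 uM stock) for 30 min at 37C. cAMP was measured by HTRF (cAMP-d2 plus anti-cAMP antibody-K) after 30 min at room temperature.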
# ClpP mod: qHTS Assay for Activators of ClpP; ATP-dependent Clp protease proteolytic subunit (Bacillus subtilis (strain 168)), P80244; purified B. subtilis ClpP, FRET peptide cleavage, 20 min; Potency, µM (highest dose often 57.5 µM), inactives show top-dose activity change, negative = active; actives 1.9% (n = 340,000); AID 651965, 2013; active = well fitted falling curve with a large enough effect; inconclusive = small, poorly fitted or top-dose-only effect; inactive = no such curve, though single readings can be large or run the other way; also: potency is read from the fitted curve at half-maximal effect; the source files actives as falling curves though it sought activators and does not explain the sign; nearly all actives have a fitted effect of over 65% in size; many hits overshoot -100%
# Target sequence (P80244 whole entry, looked up): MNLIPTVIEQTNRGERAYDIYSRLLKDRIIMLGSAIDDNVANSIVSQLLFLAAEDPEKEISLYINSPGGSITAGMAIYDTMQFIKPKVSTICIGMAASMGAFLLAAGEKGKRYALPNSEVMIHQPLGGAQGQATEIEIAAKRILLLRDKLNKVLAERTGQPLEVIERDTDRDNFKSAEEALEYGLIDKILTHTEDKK
#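 Buffer: 100 mM Tris/HCl pH8, 100 mM KCl, 0.05% low protease BSA, 2.5% glycerol, 0.01% Tween-20. ClpP 10 microg/mL final; 20 min RT; delta FRET normalized to ADEP and DMSO controls.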
# Menin-MLL FL inh: inhibitors of human menin-MLL interaction, wild-type MLL peptide | 290,000 tested, under 10 active | Fluorescence polarization, fluorescein-MLL peptide displacement from menin | FP activity change, % at 61.4 µM; inconclusive = falling polarisation curve, or a change in total fluorescence; inactive = total fluorescence flat and polarisation flat or rising; no compound was filed as active; the % refers to the polarisation; negative = inhibition;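 also: % of control where 0% means no effect; inhibitors lower the polarisation; unlabelled MLL peptide was the positive control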
# gsp antagonist: antagonizes gsp, the McCune-Albright syndrome mutation | gsp-mutant cells, cAMP HTRF, 30 min; control for the full effect not named in the record | Potency, µM (top dose mostly 76.9 µM), inactives show at the top dose activity change, negative = inhibition, actives largely listed as inhibitors | actives 0.4% (n = 340,000); active = falling curve of any shape with a large fitted effect; inconclusive = falling curve, mostly with a smaller effect; inactive = flat or rising curve; cell line not stated here;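 also: intracellular cAMP measured with PDE inhibitor Ro 20-1724 present during compound exposure; potency is read from the fitted curve at half-maximal effect; % is scaled to controls: 0 for no effect and ±100 for the full control effect; nearly all actives have a fitted effect of over 65% in size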
#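 Cells in G418 medium, seeded 16-24 h, 37C; buffer exchange to DPBS + 1 mM CaCl2, 0.5 mM MgCl2, 0.05% BSA; cpds in DMSO + […] (300 uM stock), 30 min 37C; HTRF cAMP detection.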
# TRPML1 blocker: inhibitors of human TRPML1 channel. Q9GZU1. TRPML1-inducible cells, Ca2+ dye fluorescence, FDSS; active compounds read low; inhibition of EC80 agonist-evoked calcium signal. activity change, negative = inhibition, % (no concentration beside the values). actives 0.02% (n = 390,000); in the data active means activity change below about -50%; inconclusive means about -30% to -50%; inactive means above about -30%;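 also: stimulus is agonist 54-4 at its EC80 concentration; % is scaled to controls: 0 for no effect and ±100 for the full control effect; compound concentration not given in the record; the text of the record puts the active cut at -80%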
#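 Calcium fluorescence in TRPML1-DL cells induced overnight with Tet: a 110 s read after compound pin addition, then a 110 s antagonist read after challenge with 54-4 at 4 uM final (EC80).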
# Starred values were filed as active, the others as inactive; ? = inconclusive; nt = not tested or not shown; & = joins results of further samples; [ ] = another dose, or the depositor's remark.
# The opening 16 compounds, to show the layout:
mol,TRPML1 ag,ClpP mod,TRPML1 blocker,gsp antagonist,Menin-MLL FL inh,gsp agonist
O=C(C1CCN(S(=O)(=O)c2ccc(Br)s2)CC1)N1CCc2ccccc21,0.1,1.2%,9.0,-10.2%,-1.5,-0.5%
Cc1ccccc1Cn1nc(C)c(NC(=O)c2cc3n(n2)C(C(F)F)CC(C(F)F)N3)c1C (configuration not stated),-0.8,1.6%,-9.9,4.2%,0.2,-7.2%
O=C(NC(=S)N1CCCCC1CO)c1cccs1 (configuration not stated),-0.2,-19.3%,6.1,2.9%,nt,14.8%[15.4 µM]
CCCCCCN1C[C@@H](n2cc(COC(=O)c3ccccc3)nn2)[C@H](O)C[C@@H]1c1ccccc1,4.4,0.0%,9.7,nt,nt,10.1%
COCCN1Cc2cccc(C(=O)Nc3ccc(C)c(F)c3)c2C1=O,2.3,5.4%,-25.7,nt,nt,nt
COc1ccc(-c2nc3ccc(C(=O)NCC(OC)OC)cc3nc2-c2ccc(OC)c(OC)c2)cc1OC,1.5,-0.3%,?,-1.9%,-0.3,?
CC(C)CCc1c(O)nc(SCC(C)C)[nH]c1=O,0.9,31.6µM*,10.0,5.2%,0.3,13.9%[15.4 µM]
NC(=O)Nc1ccc2c(c1)OCCO2,0.2,-1.0%,38.0,9.6%,2.7,5.4%
COc1cccc(C2/C(=C(/O)c3ccc(F)cc3)C(=O)C(=O)N2CCN(C)C)c1 (configuration not stated),0.9,-2.5%,0.2,10.4%,2.4,-77.1%[inhibitor]
COc1ccc(/C=N/NC(=O)CN2CCCc3ccccc32)c(OC)c1,2.1,nt,1.5,-6.1%,0.6,-1.2%[15.4 µM]
O=C(CSc1nnc(-c2ccc3c(c2)OCO3)o1)Nc1c(F)cccc1F,1.7,0.6%,0.0,-0.1%,nt,-16.4%
Cc1cc(C(=O)NNc2ccc(Cl)cc2)no1,0.0,nt,-9.4,-5.4%,-0.7,?
COc1ccc(S(=O)(=O)Nc2ccc3oc(C)c(C(C)=O)c3c2)cc1,0.0,1.1%,-6.9,0.9%,-7.7,1.1%
Cn1ncc2c(N)nc(NCCO)nc21,0.6,0.0%,32.2,3.2%,nt,20.1%[15.4 µM]
O=C(NC(=S)NCc1nc2ccccc2[nH]1)c1ccc(F)cc1,0.8,nt,-12.4,6.9%,-9.5,-0.7%[15.4 µM]
COCCn1c(N)c(N(Cc2ccccc2)C(=O)COc2ccc(F)cc2Cl)c(=O)[nH]c1=O,1.7,1.1%,57.7,-2.1%,nt,3.6%

# Main list, previewed entries included:
mol,TRPML1 ag,ClpP mod,TRPML1 blocker,gsp antagonist,Menin-MLL FL inh,gsp agonist
O=C(C1CCN(S(=O)(=O)c2ccc(Br)s2)CC1)N1CCc2ccccc21,0.1,1.2%,9.0,-10.2%,-1.5,-0.5%
Cc1ccccc1Cn1nc(C)c(NC(=O)c2cc3n(n2)C(C(F)F)CC(C(F)F)N3)c1C (configuration not stated),-0.8,1.6%,-9.9,4.2%,0.2,-7.2%
O=C(NC(=S)N1CCCCC1CO)c1cccs1 (configuration not stated),-0.2,-19.3%,6.1,2.9%,nt,14.8%[15.4 µM]
CCCCCCN1C[C@@H](n2cc(COC(=O)c3ccccc3)nn2)[C@H](O)C[C@@H]1c1ccccc1,4.4,0.0%,9.7,nt,nt,10.1%
COCCN1Cc2cccc(C(=O)Nc3ccc(C)c(F)c3)c2C1=O,2.3,5.4%,-25.7,nt,nt,nt
COc1ccc(-c2nc3ccc(C(=O)NCC(OC)OC)cc3nc2-c2ccc(OC)c(OC)c2)cc1OC,1.5,-0.3%,?,-1.9%,-0.3,?
CC(C)CCc1c(O)nc(SCC(C)C)[nH]c1=O,0.9,31.6µM*,10.0,5.2%,0.3,13.9%[15.4 µM]
NC(=O)Nc1ccc2c(c1)OCCO2,0.2,-1.0%,38.0,9.6%,2.7,5.4%
COc1cccc(C2/C(=C(/O)c3ccc(F)cc3)C(=O)C(=O)N2CCN(C)C)c1 (configuration not stated),0.9,-2.5%,0.2,10.4%,2.4,-77.1%[inhibitor]
COc1ccc(/C=N/NC(=O)CN2CCCc3ccccc32)c(OC)c1,2.1,nt,1.5,-6.1%,0.6,-1.2%[15.4 µM]
O=C(CSc1nnc(-c2ccc3c(c2)OCO3)o1)Nc1c(F)cccc1F,1.7,0.6%,0.0,-0.1%,nt,-16.4%
Cc1cc(C(=O)NNc2ccc(Cl)cc2)no1,0.0,nt,-9.4,-5.4%,-0.7,?
COc1ccc(S(=O)(=O)Nc2ccc3oc(C)c(C(C)=O)c3c2)cc1,0.0,1.1%,-6.9,0.9%,-7.7,1.1%
Cn1ncc2c(N)nc(NCCO)nc21,0.6,0.0%,32.2,3.2%,nt,20.1%[15.4 µM]
O=C(NC(=S)NCc1nc2ccccc2[nH]1)c1ccc(F)cc1,0.8,nt,-12.4,6.9%,-9.5,-0.7%[15.4 µM]
COCCn1c(N)c(N(Cc2ccccc2)C(=O)COc2ccc(F)cc2Cl)c(=O)[nH]c1=O,1.7,1.1%,57.7,-2.1%,nt,3.6%
c1csc(-c2noc(CN3CCN4CCCC4C3)n2)c1 (configuration not stated),-0.4,nt,10.8,12.0%,3.3,?
O=C(CCC(=O)N(CC(=O)NC1CCCC1)c1ccc(F)cc1)Nc1nccs1,0.3,nt,-11.3,-2.4%,nt,28.0%
CCOC(=O)c1sc(Nc2ccccc2Cl)nc1C,0.3,-4.6%,1.8,4.1%,5.8,20.6%
COc1ccc(C(=O)Nc2ccc(Nc3ccccc3)cc2)cc1OC,0.5,13.8%,-0.2,-7.5%,2.9,-15.0%
Cn1cnc(C(=O)NCc2ccccc2)c1C(=O)NCc1ccccc1,0.6,-4.1%,-0.3,6.6%,nt,12.6%
Cc1cc(C)c(NC(=O)/C=C\C(=O)O)c([N+](=O)[O-])c1,1.1,0.6%,-12.3,10.5%,0.8,13.1%
CC(C)C(NS(=O)(=O)c1cccs1)C(=O)NCCCN1CCCCCC1 (configuration not stated),1.0,0.8%,-8.7,10.6%,4.5,-24.1%
COc1ccc(S(=O)(=O)N(C)C[C@H]2Oc3c(NC(=O)Nc4ccccc4)cccc3C(=O)N([C@H](C)CO)C[C@@H]2C)cc1,1.0,-0.5%,-13.4,-23.2%,nt,nt
CC(=O)Nc1ccc2c(c1)nc(CCN1CCC(C)CC1)n2C,-0.3,-7.5%,-13.7,0.2%,2.5,0.6%

# Next part
mol,TRPML1 ag,ClpP mod,TRPML1 blocker,gsp antagonist,Menin-MLL FL inh,gsp agonist
COc1ccc(CCNC(=O)C2CCN(C(=O)c3cccs3)CC2)cc1,3.9,-1.8%,-7.6,-6.2%,0.2,14.1%
COCCCN(Cc1ccco1)C(=O)CSc1nc2ncccc2[nH]1,0.3,-8.5%,-3.1,-1.7%,nt,2.4%
COC(=O)c1ccc(CNC(=O)c2nc(Cn3nc(C)c(Br)c3C)no2)cc1,2.5,1.9%,2.5,nt,nt,nt
CCN(CC)CCCNC(=O)c1cnc(SC)nc1-c1ccccc1,0.4,-2.3%,20.8,nt,nt,nt
COc1ccc(-c2nnnn2-c2ccccc2OC)cc1,2.6,-1.6%,31.9,-4.1%,9.0,-23.0%
Cc1ccc(CNC(=O)C2CCN(S(=O)(=O)N3CCCC3)CC2)cc1,-0.7,0.6%,-12.9,-11.5%,nt,-41.6%[inhibitor]
COc1cccc(C2c3[nH]c4ccccc4c3C[C@H]3C(=O)N(c4ccccc4C(=O)N4CCC[C@H]4C(=O)O)C(=O)N23)c1 (some centres not stated),nt,-3.4%,nt,2.4%,-0.6,nt
COc1cc2c(cc1OC)C(CCc1ccccc1)=NCC2,0.5,nt,-1.0,8.5%,1.1,?
Cc1cccc(NC(=O)Nc2ccc(F)cc2)n1,0.7&-0.8,0.4%&-1.1%,-18.8&20.2,7.4%,5.3,-5.0%
CCOc1ncccc1C(=O)OCC(=O)Nc1ccc(S(=O)(=O)N2CCOCC2)cc1,-1.2,2.2%,0.8,-4.4%,2.1,-7.5%
N#CCC(N)=C(C#N)C#N,6.8,-1.4%,-0.5,-5.8%,?,nt

# Complete entries, quoted from the list:
# CCOC(=O)c1sc(Nc2ccccc2Cl)nc1C is listed as TRPML1 ag: 0.3; ClpP mod: -4.6%; TRPML1 blocker: 1.8; gsp antagonist: 4.1%; Menin-MLL FL inh: 5.8; gsp agonist: 20.6%
# N#CCC(N)=C(C#N)C#N is listed as TRPML1 ag: 6.8; ClpP mod: -1.4%; TRPML1 blocker: -0.5; gsp antagonist: -5.8%; Menin-MLL FL inh: ?; gsp agonist: nt
